TRPML1 blocker – blocks the human TRPML1 channel; TRPML1-inducible cells, Ca2+ dye fluorescence, FDSS; hits give low values; inhibition of EC80 agonist-evoked calcium signal; AID 624415; Q9GZU1; 390,000 compounds, 0.02% hits; activity change, negative = inhibition, % (test concentration not listed); in the data active means activity change below about -50%; inconclusive means about -30% to -50%; inactive means above about -30%;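 note: stimulus is agonist 54-4 at its EC80 concentration; % is set by controls: 0 for no effect and ±100 for the full control effect; compound concentration not given in the record; the text of the record puts the active cut at -80%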
Target sequence (Q9GZU1 whole entry, looked up): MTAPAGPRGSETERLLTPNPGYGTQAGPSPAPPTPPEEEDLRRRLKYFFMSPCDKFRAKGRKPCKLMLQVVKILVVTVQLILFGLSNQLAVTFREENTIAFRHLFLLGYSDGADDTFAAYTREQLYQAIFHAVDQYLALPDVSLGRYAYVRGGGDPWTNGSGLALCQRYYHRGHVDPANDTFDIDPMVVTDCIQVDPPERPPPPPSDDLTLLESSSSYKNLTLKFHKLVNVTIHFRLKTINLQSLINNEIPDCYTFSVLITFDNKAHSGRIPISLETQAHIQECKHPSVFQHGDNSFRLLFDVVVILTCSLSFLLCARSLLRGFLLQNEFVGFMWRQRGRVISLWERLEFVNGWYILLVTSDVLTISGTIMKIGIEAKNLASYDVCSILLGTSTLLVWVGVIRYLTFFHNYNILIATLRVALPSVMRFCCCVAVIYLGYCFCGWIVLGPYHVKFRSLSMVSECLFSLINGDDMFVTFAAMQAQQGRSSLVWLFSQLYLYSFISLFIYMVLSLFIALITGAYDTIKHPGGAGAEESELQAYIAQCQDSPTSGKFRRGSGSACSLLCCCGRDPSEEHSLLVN
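Tet-induced TRPML1-DL cells loaded with Ca8 no-wash calcium dye were read kinetically on FDSS. Compound addition was followed by EC80 agonist 54-4 (4 uM final); inhibition was read over 110 s.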
ClpP mod – qHTS Assay for Activators of ClpP; ATP-dependent Clp protease proteolytic subunit (Bacillus subtilis (strain 168)), P80244; purified B. subtilis ClpP, FRET peptide cleavage, 20 min; Potency, µM (series often up to 57.5 µM), for the others: at the highest dose activity change, negative = active; 340,000 compounds, 1.9% hits; active = well fitted falling curve with a large enough effect; inconclusive = small, poorly fitted or top-dose-only effect; inactive = no such curve, though single readings can be large or run the other way; note: potency is the fitted concentration of half-maximal effect; the source files actives as falling curves though it sought activators and does not explain the sign; nearly all actives have a fitted effect of over 65% in size; many hits overshoot -100%
Target sequence (P80244 whole entry, looked up): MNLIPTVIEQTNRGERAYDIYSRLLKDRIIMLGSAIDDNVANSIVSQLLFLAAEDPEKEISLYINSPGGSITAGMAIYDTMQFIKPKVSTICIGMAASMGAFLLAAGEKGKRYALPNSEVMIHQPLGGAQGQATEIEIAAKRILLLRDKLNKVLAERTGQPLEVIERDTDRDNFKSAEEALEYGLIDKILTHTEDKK
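ClpP 10 microg/mL final, pH 8 Tris/KCl buffer with BSA, glycerol, Tween-20; compound pinned in; FRET-FV substrate; RT 20 min; Ex320/Em430; ΔFRET vs ADEP 5.8 microM, DMSO, no enzyme.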
Starred values were filed as active, the others as inactive; u = inconclusive.

SMILES	TRPML1 blocker	ClpP mod
CCc1ccc2c(c1)NC(c1cccnc1)=NC(c1ccc(C(C)(C)C)cc1)=N2	u	-3.0%
CCN(CC)CCCNC(=O)c1ccc2c(=O)n(CCc3ccccc3)c(=O)[nH]c2c1	-21	4.4%
O=C1CC(c2ccc(F)cc2)c2c(c3ccccc3[nH]c2=O)O1 (stereo not drawn)	-2	3.7%
COCCCNC(=O)c1ccc(-n2c(-c3ccccc3)cc3c2CCC(C)C3)cc1 (stereo not drawn)	-8	-17%
Cc1ccc(NS(=O)(=O)c2ccc3nc(-c4ccccc4)[nH]c3c2)cc1Cl	12	-5.6%
O=S(=O)(c1ccc(C2CCCCC2)cc1)N1CCN(c2cc(Cl)ccc2Cl)CC1	-11	0.3%
O=C(Cn1c(-c2cccs2)cc2cc(Cl)ccc21)N1CCCCC1	5	35µM*
COc1ccccc1CNC(=O)CSc1nc2nc(C)c(Cc3ccccc3Cl)c(C)n2n1	-14	u
COc1cccc(C(=O)N(Cc2sccc2C)C2CCS(=O)(=O)C2)c1 (stereo not drawn)	38	2.9%
Cc1cccc(OCC(=O)N(Cc2cccc(Cl)c2)Cc2ccco2)c1C	5	0.6%
O=C(Nc1ccc(C(=O)N2CCN(c3ccc(F)cc3)CC2)cc1)c1nsc2ccccc12	-4	-4.0%
COc1ccc(OC)c(NC(=O)Cn2c(=O)n(Cc3nc(C)no3)c(=O)c3ccccc32)c1	12	-0.7%
COc1ccc2c(c1)CC(NC(=O)Nc1ccc(Br)c(C)c1)CO2 (stereo not drawn)	8	0.4%
Cc1ccc(-n2ncc3c(Nc4ccc5c(c4)OCCO5)ncnc32)cc1Cl	-29	-18%
O=C(CCS(=O)(=O)c1cc2c3c(c1)CCN3C(=O)CC2)NCc1ccc(F)cc1	7	-2.6%
COc1ccc(C(=O)Nc2ccc3nc(N4CCC(C)CC4)cc(C)c3c2)cc1	-7	u
Cc1ccc(OCC(=O)Nc2cc(-c3cccc(C)c3)nn2-c2ccccc2)cc1	6	-14%
COc1ccc(-c2nnc(SCC(=O)NCc3ccccc3)nc2-c2ccc(OC)c(OC)c2)cc1OC	11	-0.6%
CCOC(=O)c1cc(-c2ccccc2)n(-c2cccc(C(=O)Nc3cc(OC)cc(OC)c3)c2)c1C	0	u
CCc1cccc(C)c1NC(=O)c1cc(S(=O)(=O)N2CCC3(CC2)OCCO3)ccc1F	7	0.8%
CCC(C(=O)N(C)Cc1ccccc1)n1nc(C)c2sc3ccccc3c2c1=O (stereo not drawn)	48	u
Cc1ccc2nc(-c3cc(NC(=O)COc4ccc(C)c(C)c4)ccc3Cl)oc2c1	13	3.7%
COc1ccc(N(Cc2cccs2)C(=O)Nc2ccccc2)cc1	0	-0.3%
Cc1ccc(C(=O)Nc2ccc(C(=O)OCc3cc(=O)n4c5c(sc4n3)CCCC5)cc2)cc1	-15	-2.8%
COc1ccccc1NC(=O)CSc1oc(-c2ccco2)nc1S(=O)(=O)c1ccc(C)cc1	7	1.8%

Not a retest: 7 of the compounds above.
SMILES	TRPML1 blocker	ClpP mod
COc1ccc2c(c1)CC(NC(=O)Nc1ccc(Br)c(C)c1)CO2 (stereo not drawn)	8	0.4%
Cc1ccc(-n2ncc3c(Nc4ccc5c(c4)OCCO5)ncnc32)cc1Cl	-29	-18%
O=C(CCS(=O)(=O)c1cc2c3c(c1)CCN3C(=O)CC2)NCc1ccc(F)cc1	7	-2.6%
COc1ccc(C(=O)Nc2ccc3nc(N4CCC(C)CC4)cc(C)c3c2)cc1	-7	u
Cc1ccc(OCC(=O)Nc2cc(-c3cccc(C)c3)nn2-c2ccccc2)cc1	6	-14%
COc1ccc(-c2nnc(SCC(=O)NCc3ccccc3)nc2-c2ccc(OC)c(OC)c2)cc1OC	11	-0.6%
CCOC(=O)c1cc(-c2ccccc2)n(-c2cccc(C(=O)Nc3cc(OC)cc(OC)c3)c2)c1C	0	u

5 compounds out of the list above, arranged by their value in TRPML1 blocker, low to high:
smiles,TRPML1 blocker
CCN(CC)CCCNC(=O)c1ccc2c(=O)n(CCc3ccccc3)c(=O)[nH]c2c1,-21
Cc1ccc(C(=O)Nc2ccc(C(=O)OCc3cc(=O)n4c5c(sc4n3)CCCC5)cc2)cc1,-15
CCc1cccc(C)c1NC(=O)c1cc(S(=O)(=O)N2CCC3(CC2)OCCO3)ccc1F,7
Cc1ccc(NS(=O)(=O)c2ccc3nc(-c4ccccc4)[nH]c3c2)cc1Cl,12
COc1cccc(C(=O)N(Cc2sccc2C)C2CCS(=O)(=O)C2)c1 (stereo not drawn),38

Next section.
SMILES	TRPML1 blocker	ClpP mod
COc1cccc(CNC(=O)c2ccc(NC(=O)N3CCCCc4ccccc43)cc2)c1	5	-0.5%
COc1ccccc1Nc1nc2c(S(=O)(=O)c3ccc(C(C)C)cc3)nnn2c2ccsc12	26	-12%
Cc1ccc(C(=O)c2cn(Cc3cccc(Cl)c3)c3nc(C)ccc3c2=O)cc1	14	-3.9%
CCc1cccc(NC(=O)CN2C(=O)COc3ccc(S(=O)(=O)Nc4ccccc4)cc32)c1	-2	0.0%
O=S(=O)(c1ccc(-c2cnc(C3CC3)o2)cc1)N1CCN(c2cccc(Cl)c2)CC1	-6	5.0%
Cc1ccc(S(=O)(=O)Nc2cc3c(cc2C)n(C)c(=O)c(=O)n3C)cc1	19	-8.1%
COc1ccc(OC)c(NC(=O)c2cccn2-c2nnc(N3CCCCC3)s2)c1	-8	-1.0%
CCOc1ccc(NC(=O)C2CC(=O)NC(=Nc3ccc(Cl)c(Cl)c3)S2)cc1 (stereo not drawn)	-7	1.6%
O=C(NCC(c1ccco1)S(=O)(=O)c1cccs1)c1ccc(F)cc1 (stereo not drawn)	10	-0.4%
Cc1ccccc1-c1nc(NC(=O)CSc2ncnc3sc4c(c23)CCCC4)ns1	3	1.7%
COc1ccccc1NC(=O)C1=C(C)Nc2ncnn2C1c1ccc[nH]1 (stereo not drawn)	-9	-8.0%
COc1cc(OC)cc(-n2c(=O)c3sccc3n(Cc3cc(=O)n4c(C)cccc4n3)c2=O)c1	-5	-8.4%
COc1cccc(CNC(=O)c2nn(-c3ccccc3Cl)nc2CO)c1	2	-9.2%
COC(=O)c1c(NC(=O)c2ccc(OC)cc2OC)sc2c1CCCCC2	-14	-30%
COC(=O)c1ccccc1NC(=O)c1ccc2c(Cl)c3c(nc2c1)CCCC3	6	47%
CCN(CC)S(=O)(=O)c1ccc2c(c1)nc(CN(C)C(=O)Nc1cccc(Cl)c1)n2C	3	0.9%
CC(=O)c1c(C)oc2ccc(N(C(=O)Oc3ccccc3)S(=O)(=O)c3ccccc3)cc12	-11	-14%
COc1ccc(C)cc1NC(=O)Nc1cccc(-c2noc(C)n2)c1	0	1.8%
CCOc1ccc(CCN2C(=S)N([C@@H](Cc3ccc(O)cc3)CN3CCC[C@@H]3CN3C(=S)NC[C@@H]3Cc3ccccc3)C[C@@H]2Cc2ccccc2)cc1	21	-1.1%
c1ccc(-n2ncc3c(NC4CCCC4)ncnc32)cc1	u	-18%
CCCCNc1ccc(-c2nc(-c3ccncc3)no2)cc1[N+](=O)[O-]	-9	-1.9%
Cc1cccc(CNC(=O)C2CCN(c3nn4cc(-c5ccc(F)cc5)nc4s3)CC2)c1	-15	1.6%
CCOc1ccc(Nc2cc(C)nc3nc(Cc4ccc(Cl)cc4)nn23)cc1	12	-0.6%
Cc1ccc(CNC(=O)c2ccc(CN3CC(=O)N4CCCCC4C3=O)cc2)cc1 (stereo not drawn)	-15	-2.0%
CC(=O)Nc1cccc(NC(=O)Cn2cnc3c(oc4ccccc43)c2=O)c1	-11	0.5%
(further entries)
SMILES	TRPML1 blocker	ClpP mod
Cn1c(=O)oc2cc(S(=O)(=O)NC(Cc3ccccc3)C(=O)NCc3ccccc3Cl)ccc21 (stereo not drawn)	8	1.5%
COc1ccc(Br)cc1CNC(=O)c1ccc2c(c1)nc1n2CCCCC1	27	-0.9%
CCCN(CCC)CCNC(=O)c1cc2c(=O)oc3ccc(C)cc3c2s1	-19	u
CCOC(=O)c1cnn(-c2ccc(C(=O)Nc3ccc(OC(F)(F)F)cc3)cc2)c1N	-3	-1.8%
COC(=O)c1ccc2oc(=O)c(S(=O)(=O)c3ccc(C)cc3)cc2c1	-3	-8.4%
Cc1ccnc(NC(c2cc(C)ccc2O)c2ccc3cccnc3c2O)c1 (stereo not drawn)	4	1.2%
COc1ccc(-c2cc(C(=O)OCC(=O)c3cccc(OC)c3)c3cccc(Cl)c3n2)cc1	5	-1.6%
CCOc1cc(Br)cc(C2NC(=O)c3c(sc4c3CCN(C)C4)N2)c1O (stereo not drawn)	14	3.6%
O=C(NCCCN1CCN(c2ccc(F)cc2)CC1)Nc1ccc(Cl)cc1	-7	-3.2%
COc1cc(NC(=O)CCn2c(-c3ccccc3)cc(C(C)=O)c2C)cc(OC)c1	-3	-5.1%
O=C(CSc1nc2ccccc2nc1Cc1ccc(Cl)cc1)N1CCCc2ccccc21	16	-1.3%
Cc1ccc(CNS(=O)(=O)c2ccc3c(c2)CC(C)N3C(=O)C2CCC2)cc1 (stereo not drawn)	3	2.1%
Cc1cc(=O)n2nc(N3CCC(C(=O)Nc4ccc(Br)cc4F)CC3)sc2n1	6	-2.8%
Cc1ccc(NC(=O)c2oc3ccc(S(=O)(=O)N(C)C4CCCCC4)cc3c2C)cc1Cl	0	u
CC1N=C2c3ccccc3N=C(SCC(=O)NCCc3ccc(Cl)cc3)N2C1=O (stereo not drawn)	15	4.1%
Cc1ccc(-c2c3c(=O)n(C)c(=O)n(C)c3c3n2-c2ccccc2NC3c2ccc(C)cc2O)cc1 (stereo not drawn)	4	4.4%
Cc1c(Cl)cccc1NC(=O)CN1C(=O)COc2ccc(S(=O)(=O)Nc3ccccc3)cc21	-6	-0.1%
COc1cc(C(=O)Nc2ccc(NC(=O)c3ccc(Br)cc3)cc2)cc(OC)c1OC	12	-8.9%
Cn1ncc2nc(SCC(=O)Nc3ccc(Br)cc3F)n(Cc3ccccc3)c(=O)c21	3	0.9%
Cc1nc2ccn(Cc3ccco3)c(=O)c2cc1C(=O)NCc1ccc(Cl)cc1	8	5.1%
Cc1oc(-c2ccc(C(=O)NCc3ccccc3F)cc2)nc1COc1ccccc1	5	4.2%
CC(C)Oc1cccc(C(=O)Nc2ccc3oc(-c4cccc(Cl)c4)nc3c2)c1	7	u
CCOc1ccc(S(=O)(=O)Nc2ccc3c(c2)N(C(C)=O)CCC3)cc1	-23	-8.6%
CCN(CC)c1nn2c(=O)c(C(=O)NCc3ccccc3Br)cnc2s1	-18	u
Cc1ccc(CCNC(=O)CCN2N=C(c3ccc(C)cc3)CCC2=O)cc1	1	-0.7%
(further entries)
SMILES	TRPML1 blocker	ClpP mod
COCC(C)Nc1ncnc2c1cnn2-c1cccc(Cl)c1 (stereo not drawn)	-19	-13%
COc1ccc(CNC(=O)c2ccc(-c3nc(CS(=O)c4ccc(C)cc4)c(C)o3)cc2)cc1 (stereo not drawn)	-17	-5.4%
CCOc1ccc(Nc2cc(C)nc3nncn23)cc1	2	-0.7%
CCOC(=O)c1c(C)oc2nc(C)nc(NCc3cccc(OC)c3)c12	-4	-1.5%
COc1ccc(CNC(=O)Cn2c(SCC(=O)Nc3ccc(C)c(C)c3)nc3ccccc32)cc1	2	-2.3%
COc1ccccc1Cc1c(-c2cccc(Br)c2)nc2ccc(Br)cn12	-18	-9.4%
O=C(NCc1ccc(F)cc1)c1cc2c(s1)-c1ccccc1SC2	41	4.3%
CC(=O)Nc1ccc(NC(=O)c2cc(-c3cccs3)on2)cc1	39	-17%
CCOc1ccc(Nc2nc(C)c(NC(=O)c3ccc(C)cc3)c(Nc3ccc(OCC)cc3)n2)cc1	14	-24%
Cc1ccc(CNC(=O)Cc2csc3ccccc23)cc1	-10	0.0%
Cc1cccc(OCC(=O)NCC2(N3CCN(C)CC3)CCCCC2)c1C	7	-2.7%
CCN(CC)CCSc1nnc2c3cc(F)ccc3n(CC)c2n1	26	-2.3%
Cc1ccc(C)c(N2CCN(S(=O)(=O)c3cc(-c4cc(C)no4)ccc3C)CC2)c1	31	-15%
COc1ccccc1CNC(=O)C(C)n1ccc2cc(S(=O)(=O)N3CCCC3)ccc21 (stereo not drawn)	-14	-1.3%
O=C(CN1C(=O)COc2ccc(S(=O)(=O)N3CCCCCC3)cc21)N1CCN(c2ccccc2F)CC1	-8	1.5%
Cc1cccc(CNC(=O)c2ccc(NC(=O)N3CCSc4ccccc43)cc2)c1	0	-1.7%
Cc1cccc(-n2c(=O)c3c(c4cc(C)ccc4n3C)n(CC(=O)NCC3CCCO3)c2=O)c1 (stereo not drawn)	-1	4.3%
CCCC12CN3CC(C)(CN(C1)C3c1ccc(OCc3ccccc3)cc1)C2=O (stereo not drawn)	15	-0.4%
CCOC(=O)C1=C[C@@H](C(C)(C)C)N(S(=O)(=O)c2ccc(C)cc2)[C@H]1c1ccccc1	-19	-2.2%
COc1ccccc1OCc1nc(C#N)c(NCc2ccc(C)cc2)o1	23	0.3%
COc1ccccc1NC(=O)c1sc2cccc(Cl)c2c1Cl	1	-2.7%
O=C(CCS(=O)(=O)c1nc(-c2ccc3c(c2)OCO3)cc(C(F)(F)F)n1)Nc1ccc(F)cc1F	43	u
CCc1ccccc1NC(=O)N1CCc2cc(OC)c(OC)cc2C1CC(=O)OC (stereo not drawn)	u	-28%

Some of the compounds tested; the hit share may differ from the screen's.
